Screens as filed in PubChem BioAssay.
LANA-H2A inh: blocks KSHV LANA binding to histone H2A/H2B | 320,000 tested, 0.6% active | Q9QR71 | inhibition, % (concentration not given with the values) | cell-free LANA-H2A/H2B peptide, fluorescence polarization; in the data active means inhibition mostly above about 10%, no sharp cut-off; inactive means mostly below about 6.7%;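 further: stock transfer was 7.5 nL into about 10 µL; 0% = median of vehicle wells and 100% = median of positive control wells; one replicate is shown; the record names a cut of 25% in any replicate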
Beta2AR agonist: activates human beta-2 adrenergic receptor causing internalization; response, % (test concentration not listed); P07550; Am2.2-beta2AR cells, FAP receptor internalization, flow cytometry; reference of the scale not given here; 340,000 tested, 0.43% active;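 active means response above a set limit, near 3 SD of response in nonfluorescent compounds, cut at about 42% in these data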;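 further: stock transfer was 100 nL into about 11 µL; a reference agonist was the positive control; negative values mostly stem from fluorescent compounds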
Target sequence (P07550 whole entry, looked up): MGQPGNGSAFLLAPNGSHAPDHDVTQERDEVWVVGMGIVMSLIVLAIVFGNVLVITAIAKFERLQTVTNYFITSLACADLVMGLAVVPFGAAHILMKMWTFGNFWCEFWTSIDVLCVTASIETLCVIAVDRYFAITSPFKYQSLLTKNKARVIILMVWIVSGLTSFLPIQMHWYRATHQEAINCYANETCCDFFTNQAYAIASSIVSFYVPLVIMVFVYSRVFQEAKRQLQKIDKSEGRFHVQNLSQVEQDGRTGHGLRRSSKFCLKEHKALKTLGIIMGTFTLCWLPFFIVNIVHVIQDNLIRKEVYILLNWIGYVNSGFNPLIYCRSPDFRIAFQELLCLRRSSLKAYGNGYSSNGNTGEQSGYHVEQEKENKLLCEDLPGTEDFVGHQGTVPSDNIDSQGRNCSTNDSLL
RanGTP-Impb inh: disruptors of Ran-importin-beta complex formation – biochemical, FRET, CFP-Ran, YFP-importin-beta, homogeneous, primary screen | cell-free CFP-Ran/YFP-importin-beta FRET ratio | inhibition, % (test concentration not listed) | 300,000 tested, 1.1% active;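 active means most replicates above 15%; inconclusive means exactly half above 15%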;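 further: 0% = DMSO wells and 100% = Ran loaded with GDP instead of GTP; wells of about 40 µL received 100 nL stock; the first replicate is given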
Calb FLC: affects C. albicans growth with fluconazole. C. albicans CaCi-2 (fluconazole-resistant clinical isolate) + fluconazole, Alamar Blue growth, 48 h. growth inhibition, % (concentration not given with the values). 300,000 tested, 0.57% active;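 active means most replicates above 75%; inconclusive means exactly half above 75%; inactive means most below 75%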;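 further: all wells also contain fluconazole at 8 µg/ml as a sub-toxic cotreatment; 0% = median of DMSO wells and 100% = median of geldanamycin control wells; wells of about 8 µL received 7.5 nL stock; the first replicate is given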
ALR inh: blocks human ALR sulfhydryl oxidase activity; inhibition, % (test concentration not listed); P55789; purified ALR, DTT oxidation, H2O2 HRP-luminol luminescence; 290,000 tested, 3.8% active;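 active means mean and each replicate at 75% or more; inconclusive means only one of the two met; inactive means neither met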;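 further: stock transfer was 7.5 nL into about 7.5 µL; 0% = neutral wells and 100% = wells with inactivated enzyme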
HNF4A DNA FP: change in binding of human HNF4 alpha to DNA; P41235; HNF4a-FITC DNA binding, fluorescence polarization, 1 h; activity change, % at 10 µM; 360,000 tested, 0.3% active; AID 1224865; in the data active means activity change above about 30%, passing the limit was not always enough;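 further: controls were the assay level and a saturating level of protein; the project sought stronger binding though the title names inhibitors; some compounds called inactive have numbers as strong as hits; positive values seem to mean higher polarization but the record does not say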
Vif TR-FRET: HIV-1 Vif–A3G interaction blockers – biochemical, TR-FRET, GST-Vif 1-94, biotin-A3G peptide, dose response retest, primary screen (AID 1117319) | TR-FRET GST-Vif / biotin-A3G peptide binding; higher % means a stronger effect; test concentration not given here; strong numbers were not always called active | one-dose inhibition, %; IC50 in µM for titrated hits | 260,000 tested, 0.57% active;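 active means above the screen mean plus three standard deviations and confirmed in dose response; inconclusive means results disagree or hit not tested in dose response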;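 further: Vif residues 1-94 fused to GST binding biotinylated APOBEC3G peptide 110-148; 0% = full assay without inhibitor and 100% = GST in place of GST-Vif; retest series ran down from 100 µM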
An asterisk follows results filed as active; ? = inconclusive; / = not tested or not shown.

1) COCCCNC(=O)/C(C#N)=C1\N=C(NC(=O)c2cccs2)c2ccccc21
2) Cc1nnc(SCC(=O)NC(=O)NC(C)C)s1
3) CC(=O)Nc1ccc(NC(=O)C/C(C)=N/NC(N)=S)cc1
4) Cc1ccc(S(=O)(=O)NC(N)=NCCc2ccc(Cl)cc2)cc1C
5) O=C1CN(C(=O)c2ccccc2F)C(c2ccccc2)c2cc(F)ccc2N1 (stereo not given)
6) CCC(C)NCC(=O)Nc1ccc(S(N)(=O)=O)cc1 (stereo not given)
7) COc1c(C)cc(Br)cc1C(=O)NCc1cccnc1
8) Cc1cc2oc(C(=O)Nc3cccnc3)c(C)c2cc1C

compound no.,1,2,3,4,5,6,7,8
LANA-H2A inh,-3.1,1.3,1.9,0.1,-2.0,1.2,1.6,-2.2
Beta2AR agonist,-40,1,-2,-2,-1,-2,-5,15
RanGTP-Impb inh,-0.2,0.3,?,1.1,-1.4,1.8,-0.3,-11
Calb FLC,45,-19,-8,2,-4,?,15,8
ALR inh,/,-8,48,/,-1,-5,-2,/
HNF4A DNA FP,19,-0.1,2.6,-6.6,1.1,-0.6,-2.0,-2.0
Vif TR-FRET,-1%,-3%,2%,5%,-8%,4%,?,?

Individual results from above:
Value for entry 1 under Beta2AR agonist: -40
Value for entry 6 under RanGTP-Impb inh: 1.8
Value for entry 5 under Beta2AR agonist: -1
Value for entry 2 under Vif TR-FRET: -3%
Value for entry 8 under LANA-H2A inh: -2.2
Value for entry 3 under HNF4A DNA FP: 2.6

Additional results follow.
9) CS(=O)(=O)N1CCN(c2ccccc2NC(=O)c2ccc([N+](=O)[O-])o2)CC1
10) O=C(Nc1ccc2c(c1)OCO2)C1CC(=O)N(c2ccc(F)cc2)C1 (stereo not given)
11) S=C(Nc1ccc(Br)cc1Cl)N1CCN(c2ccccn2)CC1
12) CC(C)NC(=O)COC(=O)/C=C/c1ccc(F)cc1
13) Fc1ccc(/C=N/N2CCN(Cc3ccccc3)CC2)cc1
14) CC1CC(C)CN(C/C=C/c2ccccc2[N+](=O)[O-])C1 (stereo not given)

compound no.,9,10,11,12,13,14
LANA-H2A inh,0.4,0.6,6.5,-2.1,6.0,3.6
Beta2AR agonist,-2,4,-6,2,2,/
RanGTP-Impb inh,2.1,-5.4,0.2,0.2,-4.4,-2.0
Calb FLC,-7,8,1,6,2,-11
ALR inh,-23,-24,0,-4,-10,-1
HNF4A DNA FP,-0.6,2.2,0.6,0.1,-4.4,/
Vif TR-FRET,7%,/,/,-2%,15%,-11%

From entry 12 up to 14, as listed above:
12) CC(C)NC(=O)COC(=O)/C=C/c1ccc(F)cc1
13) Fc1ccc(/C=N/N2CCN(Cc3ccccc3)CC2)cc1
14) CC1CC(C)CN(C/C=C/c2ccccc2[N+](=O)[O-])C1 (stereo not given)

compound no.,12,13,14
LANA-H2A inh,-2.1,6.0,3.6
Beta2AR agonist,2,2,/
RanGTP-Impb inh,0.2,-4.4,-2.0
Calb FLC,6,2,-11
ALR inh,-4,-10,-1
HNF4A DNA FP,0.1,-4.4,/
Vif TR-FRET,-2%,15%,-11%

One compound at a time, from the list above. Order of screens: LANA-H2A inh, Beta2AR agonist, RanGTP-Impb inh, Calb FLC, ALR inh, HNF4A DNA FP, Vif TR-FRET
Entry for Cc1ccc(S(=O)(=O)NC(N)=NCCc2ccc(Cl)cc2)cc1C = 0.1, -2, 1.1, 2, /, -6.6, 5%
Entry for COc1c(C)cc(Br)cc1C(=O)NCc1cccnc1 = 1.6, -5, -0.3, 15, -2, -2.0, ?
Entry for COCCCNC(=O)/C(C#N)=C1\N=C(NC(=O)c2cccs2)c2ccccc21 = -3.1, -40, -0.2, 45, /, 19, -1%
Entry for CS(=O)(=O)N1CCN(c2ccccc2NC(=O)c2ccc([N+](=O)[O-])o2)CC1 = 0.4, -2, 2.1, -7, -23, -0.6, 7%
Entry for O=C1CN(C(=O)c2ccccc2F)C(c2ccccc2)c2cc(F)ccc2N1 (stereo not given) = -2.0, -1, -1.4, -4, -1, 1.1, -8%
